TRPML1 blocker: human mucolipin-1 channel inhibition; Q9GZU1; activity change, negative = inhibition, % (test concentration not listed); 390,000 compounds, 0.02% hits; TRPML1-inducible cells, Ca2+ dye fluorescence, FDSS; stronger effect = lower value; inhibition of EC80 agonist-evoked calcium signal; in the data active means activity change below about -50%; inconclusive means about -30% to -50%; inactive means above about -30%;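 further: stimulus is agonist 54-4 at its EC80 concentration; on the % scale 0 is the no-effect control and ±100 the full control effect; compound concentration not given in the record; the text of the record puts the active cut at -80%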
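Tet-induced TRPML1-DL cells loaded with Ca8 no-wash calcium dye were read kinetically on FDSS. Compound addition was followed by EC80 agonist 54-4 (4 uM final); inhibition was read over 110 s.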
PINK1 modulator: changes PINK1 expression; PINK1 immunofluorescence, high-content cytometry, 24 h; Potency, µM (doses to about 76.6 µM), without a hit: top-dose activation (PINK1 increase), most hits filed as activators; 410,000 compounds, 0.2% hits; AID 624263; active = well fitted activation curve with a large enough effect; inconclusive = small, poorly fitted or top-dose-only effect; inactive = flat fitted curve, though single readings scatter; cell line not stated here;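 further: potency means the concentration at half of the fitted maximal effect; % of control where 0% means no effect; nearly all actives have a fitted effect of over 65% in size; a mitochondrial uncoupler was the plate control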
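Compound titrations (5 concentrations, 24 h) on a stable cell line; DMSO and CCCP controls. Endpoint: fixed-cell PINK1 immunofluorescence with mitochondrial, cell and nuclear markers, scanned by microplate cytometer.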
TRPML1 agonist: agonists of human TRPML1 channel; Q9GZU1; TRPML1-expressing cells, Ca2+ dye fluorescence, FDSS; host cell line not named in the record; reference of the full effect not given here; activation, % (no concentration beside the values); 410,000 compounds, 0.12% hits; AID 624414; in the data active = activation above about 50%; inconclusive = about 30% to 50%; inactive = below about 30%; further: 0% is about no effect; the text of the record puts the active cut at 80%
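Tet-induced TRPML1-DL cells, 1,500 per well, cultured overnight, were loaded with a no-wash Ca2+ dye for 45–90 min. Calcium fluorescence was recorded on the FDSS for 110 s after compound addition, before the EC80 agonist (4 uM 54-4) was added.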
Menin MLL FP FL: inhibitors of human menin-MLL interaction, wild-type MLL peptide. Fluorescence polarization, fluorescein-MLL peptide displacement from menin. FP activity change, % at 61.4 µM. 290,000 tested, under 10 active. AID 1766; inconclusive = falling polarisation curve, or a change in total fluorescence; inactive = total fluorescence flat and polarisation flat or rising; no compound was filed as active; the % refers to the polarisation; negative = inhibition;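 further: % of control where 0% means no effect; inhibitors lower the polarisation; unlabelled MLL peptide was the positive control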
TRPV1 PAM: enhances activation of the human vanilloid receptor TRPV1. Q8NER1. TRPV1-expressing cells, Fluo-8 calcium influx, capsaicin EC20 potentiation; host cell line not named in the record; control for the full effect not named in the record. potentiation, % at 8.33 µM. 320,000 compounds, 0.02% hits. AID 540277; active means potentiation above 80%; inconclusive means 30% to 80%; inactive means below 30%; further: 0% is about no effect
Target sequence (Q8NER1 whole entry, looked up): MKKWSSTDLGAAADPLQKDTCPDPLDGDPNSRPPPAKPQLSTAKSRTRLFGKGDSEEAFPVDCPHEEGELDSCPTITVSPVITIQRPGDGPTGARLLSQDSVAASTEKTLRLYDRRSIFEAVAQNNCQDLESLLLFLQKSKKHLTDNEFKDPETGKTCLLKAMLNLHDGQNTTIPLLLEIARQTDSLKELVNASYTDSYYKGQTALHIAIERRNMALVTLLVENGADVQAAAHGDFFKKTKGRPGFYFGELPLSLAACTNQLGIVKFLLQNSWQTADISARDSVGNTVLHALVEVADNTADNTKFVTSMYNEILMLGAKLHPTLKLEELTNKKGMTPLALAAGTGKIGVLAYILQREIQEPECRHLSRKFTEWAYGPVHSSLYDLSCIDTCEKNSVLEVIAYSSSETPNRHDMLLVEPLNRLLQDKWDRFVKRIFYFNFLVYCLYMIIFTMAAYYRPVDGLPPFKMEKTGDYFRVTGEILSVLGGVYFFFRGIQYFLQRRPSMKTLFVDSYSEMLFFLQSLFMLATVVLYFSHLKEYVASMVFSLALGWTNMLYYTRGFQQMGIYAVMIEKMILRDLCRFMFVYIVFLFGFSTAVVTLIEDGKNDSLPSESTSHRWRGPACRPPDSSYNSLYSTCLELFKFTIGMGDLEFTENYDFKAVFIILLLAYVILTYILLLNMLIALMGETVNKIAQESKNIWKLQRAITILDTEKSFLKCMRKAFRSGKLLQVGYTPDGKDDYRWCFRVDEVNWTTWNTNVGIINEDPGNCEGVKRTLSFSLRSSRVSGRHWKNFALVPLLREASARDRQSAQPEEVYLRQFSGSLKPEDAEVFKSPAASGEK
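Cells expressing TRPV1 were dye-loaded with Fluo-8 and read kinetically: 10 s baseline, 3 min after compound (agonist portion), then 2 min after EC20 capsaicin (allosteric enhancer portion). Calcium-bound dye fluorescence at 480/520 nm.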
Sfp inh: Sfp phosphopantetheinyl transferase inhibition; 310,000 compounds, 3.5% hits; Biochemical Sfp PPTase activity, qHTS; Q9F4F7; Potency, µM, without a hit: max response, negative = inhibition, usual class: inhibitors; active means well fitted inhibition curve with a large enough effect; inconclusive means small, poorly fitted or top-dose-only effect, or another doubt; inactive means no such curve, though single readings can be large or run the other way;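 further: the enzyme is Sfp with the accession as filed and its product quenches rhodamine fluorescence; potency means the concentration at half of the fitted maximal effect; 0% = enzyme reaction without inhibitor and -100% = no enzyme wells; top concentration of the series not given in the record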
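Fluorescence-quenching assay: 15 nM Sfp-PPTase preincubated 15 min at room temperature with compound, then 5 uM rhodamine-CoA and 12.5 uM BHQ-2-labelled YbbR peptide added. Fluorescence (ex 525/em 598 nm) read at start and after 30 min; difference gives rate.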
ClpP mod: qHTS Assay for Activators of ClpP | purified B. subtilis ClpP, FRET peptide cleavage, 20 min | ATP-dependent Clp protease proteolytic subunit (Bacillus subtilis (strain 168)), P80244 | Potency, µM (highest dose often 57.5 µM), for the others: at the highest dose activity change, negative = active | 340,000 compounds, 1.9% hits | AID 651965, 2013; active = well fitted falling curve with a large enough effect; inconclusive = small, poorly fitted or top-dose-only effect; inactive = no such curve, though single readings can be large or run the other way; further: potency means the concentration at half of the fitted maximal effect; the source files actives as falling curves though it sought activators and does not explain the sign; nearly all actives have a fitted effect of over 65% in size; many hits overshoot -100%
Target sequence (P80244 whole entry, looked up): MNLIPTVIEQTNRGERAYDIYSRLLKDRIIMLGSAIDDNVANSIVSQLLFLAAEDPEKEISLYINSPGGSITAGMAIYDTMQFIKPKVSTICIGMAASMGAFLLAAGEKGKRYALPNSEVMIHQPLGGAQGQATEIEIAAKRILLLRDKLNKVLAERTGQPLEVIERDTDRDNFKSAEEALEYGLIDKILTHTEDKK
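Buffer: 100 mM Tris/HCl pH8, 100 mM KCl, 0.05% low protease BSA, 2.5% glycerol, 0.01% Tween-20. ClpP 10 microg/mL final; 20 min RT; delta FRET normalized to ADEP and DMSO controls.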
Active calls of the source: *; ? = inconclusive; . = not tested or not shown; & = joins results of further samples; [ ] = remark or other dose. Rows were taken by chance (roughly 4.4% active in at least one column).

mol	TRPML1 blocker	TRPV1 PAM	ClpP mod	TRPML1 agonist	Menin MLL FP FL	PINK1 modulator	Sfp inh
O=C(CCN1C(=O)C2C3CCC(C3)C2C1=O)OCC(=O)c1ccc(Br)cc1 (stereo not given)	5	1	0.8%	-0.1	-8.1	-0.3%	-10%
COc1ccc(NC(=O)c2cc(Br)ccc2Cl)c(OC)c1	9	2	-27%	1.6	1.3	6.2%	-14%
Cc1cc(Br)ccc1NCc1ccccn1	23	18	-1.4%	0.7	-1.6	-0.9%[38.3 µM]	?
CCCC(=O)Nc1nnc2n1CCS2	18	.	-1.3%	0.8	.	-5.2%	.
O=C(NCc1cccnc1)C(=O)NCC1CCCO1 (stereo not given)	-9	2	.	0.1	2.3	2.2%	17%
Cc1cc(C)c2c(=O)c(C#N)coc2c1	4	2	4.5%	-1.2	14	-0.2%	-3%
COc1ccc(NC(=O)CN(C2CCCCC2)S(C)(=O)=O)cc1OC	-6	0	-0.7%	-0.7	-1.4	0.5%	6%
CCC1=NN(C(=O)C(=O)Nc2ccc(Br)cc2)C(O)(C(F)(F)F)C1 (stereo not given)	-2	7	1.8%	-0.2	3.0	6.0%	22%
CC(C)(C)OC(=O)N1CCc2onc(-c3ccc(Br)cc3)c2C1=O	-1	.	-0.3%	3.5	.	2.1%	.
CCOC(=O)c1ccc(-c2ccc(C(=O)Nc3cccnc3)o2)cc1	8	1	?	0.6	8.7	8.2%	45µM*
Brc1ccc(-c2noc(CCc3ccccc3)n2)o1	-8	.	-1.6%	1.9	4.5	8.2%	0%
O=C1C(Cl)=C(NCCCO)C(=O)c2ccccc21	-2	-3	-2.3%	-0.1	9.6	-1.1%	0%
CC1(C)O[C@H]2OC([C@H](O)CON3C(=O)c4ccccc4C3=O)[C@H](O)[C@H]2O1 (stereo not given in full)	-14	-4	-0.9%	0.9	-3.2	1.1%	-2%
CCC(C(=O)Nc1ccc(C(=O)O)cc1NC(=O)C(CC)c1ccccc1)c1ccccc1 (stereo not given)	-29	15	-1.1%	-0.7	-3.6	0.2%	35%
Fc1ccc(CSc2nnc(-c3ccco3)o2)cc1	12	-15	-1.0%	0.6	5.5	-0.7%	3%
CCOc1cccc(-c2c(C(=O)N/N=C/c3c(F)cccc3Cl)nnn2-c2nonc2N)c1	44	28	-5.7%	1.5	.	1.7%	18%
O=C(CNC(=O)Cc1ccccc1)NCC(=O)OCC(=O)c1cccc2ccccc12	15	-5	-2.6%&-1.7%	1.1&0.0	-2.8	?	9%
O=C(CSc1ccccc1)Nc1nccs1	-2	22	.	-0.2	4.1	2.8%	8%
COCCNC(=O)c1ccc2c(c1)NC(=O)CS2	1	8	-0.8%	-0.6	-0.1	-0.7%[38.3 µM]	-14%
COc1ccc(-c2cc(C(=O)NCCCN3CCOCC3)on2)cc1OC	-13	-4	-1.6%	-0.1	.	-1.4%	6%
CC(=O)Oc1ccc(/C=C(\NC(=O)c2cccc(Br)c2)C(=O)Nc2ccc(C(=O)O)cc2)cc1	10	.	1.0%	1.9	.	-0.6%	.
COc1ccc(OC)c(N2C(=O)c3cccnc3C2=O)c1	-4	5	.	0.6	1.4	2.5%	10%
NS(=O)(=O)c1ccc(NC(=S)Nc2ccc(C(=O)N3CCCCC3)cc2)cc1	-10	0	.	-0.6	-0.4	1.2%	-28%
c1ccc(-c2nnsc2-c2ncc[nH]2)cc1	7	7	.	0.0	-2.0	-1.2%	17%
CCOC(=O)c1ccc(N2CCN(C(C)=O)CC2)c(NC(=O)c2cccnc2)c1	-12	3	1.3%	-0.1	2.7	-0.1%	27%
Cc1onc(-c2ccccc2)c1C(=O)Nc1ccccc1NC(=O)c1c(-c2ccccc2)noc1C	4	-9	0.9%	0.2	.	2.6%	2%
Cc1oc(-c2ccccc2F)nc1CS(=O)(=O)CC(=O)NC1CCCC1	32	18	-4.2%	-0.3	0.7	1.7%	9%
CN(C)/C=N/c1c(C#N)cnn1C	0	7	.	-0.5	-9.9	-0.8%	10%
CCOC(=O)C1=C(C)NC(=S)NC1c1ccco1 (stereo not given)	1	2	.	0.4	4.5	1.5%	71µM*
Cc1ccc(-c2nc(CS(=O)(=O)CC(=O)NCc3cccc(F)c3)c(C)o2)cc1	-18	23	-19%	0.4	0.3	-0.1%	1%
CCOc1ccc(CCNS(=O)(=O)c2ccc3c(c2)N(C(C)=O)CCO3)cc1OCC	24	5	2.1%	3.8	0.4	2.5%	13%
Cc1cc(C)nc(NC2=NCC(=O)N2c2ccccc2Br)n1	21	1	-0.6%	-0.4	3.9	-0.9%	0%
CC(C)(C)CC(=O)Nc1nnc(SCC(=O)NCc2cccs2)s1	-1	4	0.2%	0.0	-0.5	-0.5%	5%
CCOc1ccccc1CN1C(=O)c2ccccc2C1C(=O)NC(C)CC (stereo not given)	11	-25	-0.8%	-0.1	3.6	-1.6%	27%
O=C(Cn1c(=O)n(Cc2nc(-c3ccccc3)no2)c(=O)c2cc3c(cc21)OCO3)Nc1ccc(Cl)cc1	-15	.	13µM*	0.2	.	-0.1%	.
Cn1c(=NC(=O)c2ccc(S(=O)(=O)N3CCCc4ccccc43)cc2)sc2cc(S(C)(=O)=O)ccc21	-14	10	-2.6%	0.4	-1.4	0.6%	2%
CCOC(=O)c1ccc(/C=N/O)[n+](Cc2ccccc2)c1	4	15	0.4%	-0.9	-1.0	0.8%	17%
Cc1ccc(C(=O)C(C)OC(=O)Cn2cnc3c2c(=O)n(C)c(=O)n3C)cc1 (stereo not given)	-2	-2	-0.2%	-0.3	.	-1.3%	.
Cc1ccc(-n2c(SCCN)nnc2-c2cccc(C)c2)cc1	.	-3	-1.9%	.	4.9	-0.2%	-4%
CN(Cc1cc([N+](=O)[O-])c2cccnc2c1O)C1CCCCC1	.	-4	.	.	3.3	.	-9%
Oc1ccc(N=Nc2ccccc2-c2nn[nH]n2)c(O)c1	6	9	1.8%	1.4	?	0.3%	15%
CNC(=O)CSc1nnc(-c2cnccn2)n1C	-2	-3	-2.6%	0.5	0.5	-0.4%	24%
CCC(C)NC(=O)Cn1c(=O)n(-c2ccc(OC)c(OC)c2)c(=O)c2ccccc21 (stereo not given)	13	.	-5.3%	-0.1	.	-0.2%	.
COc1ccc(C(=O)Nc2ccccc2C(=O)OCc2cc(=O)n3c4c(sc3n2)CCCC4)cc1	33	.	4.6%	1.7	.	0.4%	.
COc1cc(OC)cc(C(=O)N2CC(=O)Nc3ccccc32)c1	21	-10	2.1%	-0.5	4.1	4.0%	18%
Cc1ccc(C(=O)O)cc1NC1(c2ccccc2)C(=O)c2ccccc2C1=O	-9	.	-9.6%	0.7	.	-2.5%	.
CCN(CC)S(=O)(=O)c1ccc(NC(=O)c2cc3ccc4cccnc4c3[nH]2)cc1	-1	.	?	0.3	.	0.9%	.
FC(F)Oc1ccc(-c2csc(NNC3=NCCCCC3)n2)cc1	11	8	.	-0.3	-3.3	14%	22µM*
N/C(COc1cccc(Cl)c1)=N\O	-5	-8	1.3%	0.4	-1.4	0.9%	1%
Cc1ccc(-c2ccc(=O)n(CC(=O)Nc3ccc(C(C)C)cc3)n2)cc1	26	.	-0.2%	-0.4	.	0.5%	.

(more compounds)
mol	TRPML1 blocker	TRPV1 PAM	ClpP mod	TRPML1 agonist	Menin MLL FP FL	PINK1 modulator	Sfp inh
CNS(=O)(=O)c1cc(NC(=O)c2cncn2-c2ccccc2)ccc1C	-21	-6	.	-0.2	-1.4	-1.0%	19%
CCCCC(CC)CNC(=O)C1CCN(S(=O)(=O)c2cccc3nsnc23)CC1 (stereo not given)	-5	.	-1.2%	-1.1	.	0.9%	.
CCCc1cc(=O)[nH]c(SCC(=O)N(C)CC(=O)Nc2ccc(C)cc2)n1	?	1	1.9%	-0.6	3.1	-4.4%	-4%
Cc1ccc(NCSc2ccc(Cl)cc2)cc1	-1	.	.	0.9	.	7.4%	.
CCN1CCN(c2ccc(S(=O)(=O)N3CCCCC3)cc2NC(=O)c2cc3ccccc3o2)CC1	24	1	16µM*	-0.4	.	15%	.
O=C(O)c1ccccc1-c1ccccc1C(=O)Nc1nc2ccccc2s1	-16	.	.	-1.0	1.5	-0.7%	14%
Cc1ccc(CNC(=O)C2CCN(S(=O)(=O)c3c(C)noc3/C=C/c3ccco3)CC2)cc1	5	3	5.8%	-0.4	?	0.8%	40µM*
COc1cccc(C2C(C#N)=C(N)Oc3cc(C)n(Cc4ccco4)c(=O)c32)c1 (stereo not given)	-14	2	0.4%	-0.8	?	0.5%	7.9µM*
c1cc2nc(C34CC5CC(CC(C5)C3)C4)[nH]c2cn1	-5	3	-2.5%	-0.2	-4.2	-1.6%	-25%
Cc1cnc(C(=O)OCC(=O)Nc2cc(Cl)ccc2C#N)cn1	-3	.	1.3%	0.2	.	0.4%	.
Cn1c(SCC(=O)Nc2ccc3cn[nH]c3c2)nnc1-c1cccs1	5	10	-6.8%	-0.2	0.0	3.6%	17%
CC1=NN(C(C)C)C(=O)C1	22	8	-0.8%	0.5	2.5	2.0%	22%
COc1cc(C(=O)N2CCN(c3ccccc3O)CC2)ccc1OCC(=O)N1CCOCC1	-5	?	-1.2%	-0.2	.	1.3%	.
CCN(CC)C(=O)CCNS(=O)(=O)c1ccc(C)cc1	-10	4	0.2%	0.5	4.3	0.3%	10%
O=C(Nc1ccccc1)Nc1cccc2cccnc12	5	0	-4.8%	1.0	4.5	-0.6%	?
CCN1CCN(C(=O)c2cc3c(s2)-c2c(C)cccc2OC3)CC1	-13	-3	3.9%	0.0	5.7	13%	1%
COc1ccccc1-c1coc2cc(OCC(=O)OCc3ccccc3)ccc2c1=O	-14	4	-13%	1.8	1.1	1.4%	16%
CCN(CC)S(=O)(=O)c1ccc2c(c1)N(CC(=O)N1CCC(C(N)=O)CC1)C(=O)CO2	3	-4	-0.8%	0.8	-2.9	0.0%	5%
